# KCNQ2 block – KCNQ2 channel blockers in CHO-K1 cells – cell-based, FluxOR thallium flux, B-score, primary screen (AID 2156). 1.1% of 310,000 active. B-score at 10 µM. 20 min; active compounds read low; only compounds with negative scores are shown here; some inactives read as strong as hits;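 active = fluorescence ratio B-score at most minus 3 library SDs, with starting brightness B-score within 2 library SDs, cut at about -5.5 in these data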
# Target sequence (O88943 whole entry, looked up): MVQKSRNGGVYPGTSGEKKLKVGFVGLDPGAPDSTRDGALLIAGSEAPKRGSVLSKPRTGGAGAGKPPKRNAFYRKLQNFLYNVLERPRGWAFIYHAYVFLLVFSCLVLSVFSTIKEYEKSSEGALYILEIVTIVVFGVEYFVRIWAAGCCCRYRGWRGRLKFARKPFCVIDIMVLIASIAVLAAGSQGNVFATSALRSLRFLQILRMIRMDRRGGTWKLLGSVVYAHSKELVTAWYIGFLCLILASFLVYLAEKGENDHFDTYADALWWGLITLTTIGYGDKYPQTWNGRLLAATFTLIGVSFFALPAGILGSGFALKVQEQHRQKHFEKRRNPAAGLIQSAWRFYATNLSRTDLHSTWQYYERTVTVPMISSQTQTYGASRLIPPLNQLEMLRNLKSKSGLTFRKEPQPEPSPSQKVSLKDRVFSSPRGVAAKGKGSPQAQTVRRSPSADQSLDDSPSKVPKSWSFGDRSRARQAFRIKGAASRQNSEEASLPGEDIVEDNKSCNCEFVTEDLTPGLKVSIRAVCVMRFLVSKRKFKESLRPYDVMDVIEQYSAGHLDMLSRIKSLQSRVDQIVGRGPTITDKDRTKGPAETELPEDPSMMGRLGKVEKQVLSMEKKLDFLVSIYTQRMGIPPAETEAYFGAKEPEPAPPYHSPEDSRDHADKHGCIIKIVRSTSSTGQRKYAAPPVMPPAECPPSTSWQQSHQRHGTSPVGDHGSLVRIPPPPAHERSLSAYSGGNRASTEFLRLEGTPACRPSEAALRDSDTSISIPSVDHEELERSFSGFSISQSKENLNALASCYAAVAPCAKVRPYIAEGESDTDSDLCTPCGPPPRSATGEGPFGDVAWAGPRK
# KCNQ2 block baseline – recorded beside KCNQ2 block, whose call it bears; B-score; measured here: initial fluorescence intensity artifact check;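 brightness before thallium and not channel activity; 0 = typical well and far values either way flag optical interference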
# Active calls of the source: *; i = inactive.
no.	Structure	KCNQ2 block	KCNQ2 block baseline
1	COc1ccc(C(C)C)cc1S(=O)(=O)n1ccnc1C	i	0.2
2	CCCN1C(=O)/C(=N\OCC(=O)Nc2ccc(C(C)C)cc2)c2ccccc21	i	2
3	O=C(CCCN1Cc2ccccc2C1)c1ccc(F)cc1	i	1.1
4	Cn1c(CNC(=O)C(Cc2ccccc2)NC(=O)c2ccccc2F)cc(=O)n(C)c1=O (stereo not drawn)	i	1.7
5	COc1ccccc1NS(=O)(=O)c1ccc(N/N=C/c2c(C)nn(-c3ccccc3)c2N2CCCC2)c([N+](=O)[O-])c1	i	0.39
6	CCOc1ccccc1N(CC(=O)NCc1ccc(OC)cc1)S(C)(=O)=O	i	-0.05
7	Cc1c(C(=O)O)sc2nc3n(c(=O)c12)CCC(C)CC3 (stereo not drawn)	i	2.1
8	CC(=O)N/C(=C\c1ccc(F)cc1)C(=O)N(C)C	i	0.21
9	O=c1oc2ccccc2cc1-c1nc2c(s1)CCc1ccccc1-2	i	0.3
10	CCOC(=O)c1cc([N+](=O)[O-])c([N+](=O)[O-])cc1NC(C)=O	i	-0.67
11	O=C(COc1ccc(S(=O)(=O)NC2CCCCC2)cc1Cl)NCC1CCCO1 (stereo not drawn)	i	-0.19
12	O=C(CNC(=O)c1cccc(Br)c1)N/N=C/c1cn[nH]c1-c1ccccc1	i	1.1
13	O=C(Nc1ccc(Cl)c(C(F)(F)F)c1)[C@@H]1CC=C[C@@H]2CCN(Cc3ccc(Cl)c(Cl)c3)C(=O)[C@@H]21	i	-0.12
14	Cc1nc(-c2cccc(NS(=O)(=O)c3ccc4ccccc4c3)c2)cs1	i	-0.81
15	COc1ccc(CN=CC2=C(O)CNC2=O)cc1	i	-0.04
16	CC(C)C(=O)Nc1cccc(-c2csc(-c3ccccc3)n2)c1	i	0.06
17	CS(=O)(=O)Nc1cccc(C2=NN(C(=O)c3cccc([N+](=O)[O-])c3)C(c3cccs3)C2)c1 (stereo not drawn)	i	2.3
18	O=C(CSCC(=O)N1CCCCC1)Nc1nc(-c2ccc(Cl)s2)cs1	i	0.63
19	COc1ccc(N=Nc2cc(C)c(O)c(CN3CCCCC3)c2)cc1	i	-0.73
20	Cc1noc(C)c1CSc1ccc(Br)cc1	i	-0.17
21	CN(C)S(=O)(=O)N1CCc2ccc(NC(=O)c3ccc(C(F)(F)F)cc3)cc2C1	i	2
22	CCc1nc(SCC(=O)NCc2ccco2)c2c3c(sc2n1)CCCC3	i	1.3
23	CCS(=O)(=O)CCn1c([N+](=O)[O-])cnc1C	i	0.22
24	COc1ccc(Oc2nc(C)nc3c2oc2ccccc23)cc1	i	0.91
25	O=C(CCNC(=O)c1ccc([N+](=O)[O-])cc1)Nc1cccc(S(=O)(=O)N2CCCCC2)c1	i	0.36
26	O=C(O)CNS(=O)(=O)Cc1ccccc1	i	0.75
27	O=C(O)CC(c1ccc(Cl)cc1)N1Cc2ccccc2C1=O (stereo not drawn)	i	0.98
28	CC(=O)c1ccc(NC(=O)C(C)Sc2nnnn2C)cc1 (stereo not drawn)	i	-0.21
29	CC(C)OCCCNC(=O)C1CCN(S(=O)(=O)N2CCCCC2)CC1	i	-0.47
30	O=[N+]([O-])c1ccc(OCC2CC(c3ccccc3)=NO2)cc1 (stereo not drawn)	i	2.2
31	NC(=O)N/N=C/c1sc(=O)n(-c2ccccc2)c1Cl	i	-0.76
32	CC(C)c1nc(SCC(=O)Nc2ccc([N+](=O)[O-])cc2Br)n[nH]1	i	-0.96
33	O=S(=O)(c1cccc(Cl)c1)N1CN(CC2CCCO2)c2nc3ccccc3nc21 (stereo not drawn)	i	-0.02
34	COc1ccc(S(=O)(=O)N2CCC(C(=O)Oc3c(OC)cccc3OC)CC2)cc1OC	i	0.24
35	CCCC(C)c1nnc(NC(=O)c2cc(C(=O)OC)cc([N+](=O)[O-])c2)s1 (stereo not drawn)	i	2.7
36	N#CC1=C(N2CCCCC2)c2cc3c(n2C1=O)CCCC3	i	-0.21
37	CCOc1cc(N2CCOCC2)c(OCC)cc1NC(=O)c1ccc2ccccc2n1	i	0.24
38	Cn1nc(C(=O)N2CCN(c3ccccc3F)CC2)c2c1-c1ccccc1S(=O)(=O)C2	i	-0.47
39	CC(C)(C)OC(=O)N1CCC(c2cc(-c3cccs3)n[nH]2)CC1	i	-0.06
40	CCCCN(C(=O)c1ccc2c(c1)S(=O)(=O)N=C1CCCCCN12)c1c(N)n(CCCC)c(=O)[nH]c1=O	i	2.8
41	Cc1nc(Nc2cccc(C(F)(F)F)c2)nc2c1C(=O)CC(C)C2 (stereo not drawn)	i	-1.3
42	O=C(Nc1ccc(F)cc1)/C(=C1/CCCCCN1)[N+](=O)[O-]	i	-0.91
43	Cc1nn(-c2ccc(F)cc2)c(C)c1NS(=O)(=O)c1ccc2ccccc2c1	i	-0.94
44	COc1ccc2o/c(=N/NC(=S)Nc3ccccc3)c(C(N)=O)cc2c1	i	2.4
45	CC1CCCCC1NCC#CCOc1ccc(Cl)cc1 (stereo not drawn)	i	1.5
46	Cc1ccc(S(=O)(=O)N(C)c2ccc(C(=O)Nc3c(C)n(C)n(-c4ccccc4)c3=O)cc2)cc1	i	-0.92
47	CCOC(=O)c1cccc2c1-c1ccccc1/C2=N/O	i	0.8
48	CCOc1cc(N2CCOCC2)c(OCC)cc1NC(=O)COc1cccc2cccnc12	i	-0.15

# Filtered by structure: those above with an NH in an aromatic ring
no.	Structure	KCNQ2 block	KCNQ2 block baseline
12	O=C(CNC(=O)c1cccc(Br)c1)N/N=C/c1cn[nH]c1-c1ccccc1	i	1.1
32	CC(C)c1nc(SCC(=O)Nc2ccc([N+](=O)[O-])cc2Br)n[nH]1	i	-0.96
39	CC(C)(C)OC(=O)N1CCC(c2cc(-c3cccs3)n[nH]2)CC1	i	-0.06
40	CCCCN(C(=O)c1ccc2c(c1)S(=O)(=O)N=C1CCCCCN12)c1c(N)n(CCCC)c(=O)[nH]c1=O	i	2.8

# Down the list, quoted from above.
# Entries 38 to 47 in KCNQ2 block read i, i, i, i, i, i, i, i, i, i
# Entries 38 to 47 in KCNQ2 block baseline read -0.47, -0.06, 2.8, -1.3, -0.91, -0.94, 2.4, 1.5, -0.92, 0.8

# Going on with the list.
no.	Structure	KCNQ2 block	KCNQ2 block baseline
49	COc1ccc(C2=NN(Cc3ccccc3)C3C(=O)NC(=O)C23)cc1 (stereo not drawn)	i	-0.09
50	O=C1CCCN1CC(O)CS(=O)(=O)Cc1ccc(Cl)c(Cl)c1 (stereo not drawn)	i	-0.42
51	CC(=O)NC(Cc1c[nH]c2ccccc12)C(=O)NCc1ccc2c(c1)OCO2 (stereo not drawn)	i	0.39
52	Nc1ccc(C(=O)Nc2ccc(Nc3ccncc3)cc2)cc1	i	2.1
53	Cc1cc[n+](C(C)C(=O)c2ccc(Cl)cc2)cc1 (stereo not drawn)	i	-0.52
54	CC(C)NC(=O)c1cc2cc(Br)ccc2oc1=O	i	-0.18
55	CC(C)C[C@H](NC(=O)N1CCn2c1nc1ccccc12)C(=O)NCc1ccc2c(c1)OCO2	i	-0.05
56	COc1ccccc1CNS(=O)(=O)c1c(C(=O)N2CCCCCC2)c(C)n(C)c1C	i	0.67
57	CC(=O)NCC(=O)NC1(C(=O)NC2CCCC2)CCCCC1	i	-0.01
58	COCC(C)NC(C(=O)Nc1ccc(C)c(Cl)c1)c1ccccc1 (stereo not drawn)	-6.8*	0.52*
59	Cc1ccc(N2C(N)=C(C#N)C(c3cccs3)C3=C2CC(C)(C)CC3=O)cc1 (stereo not drawn)	i	0.01
60	CC1(C)SCC(C(=O)O)N1C=O (stereo not drawn)	i	-0.17
61	CCc1cccc(CC)c1NC(=O)COC(=O)/C(C#N)=C/c1ccc(OC)cc1	i	-1.2
62	CC(=O)Nc1nnc(S(=O)(=O)N2CCN(c3ccc([N+](=O)[O-])cc3Cl)CC2)s1	i	-1.5
63	COc1cc(CNCCCN2CCOCC2)cc(Br)c1OCc1ccc(Cl)cc1	i	-0.01
64	Cc1cc(C(=O)NNC(=O)c2cccc(S(=O)(=O)N3CCOCC3)c2)c2ccccc2n1	i	-1.3
65	COc1cc(/C=C(\C#N)c2ccccn2)cc(OC)c1O	i	1.5
66	CCC(=NCc1ccccc1)c1c(C(F)(F)F)[nH]n(-c2nc3ccccc3s2)c1=O	i	-1.1
67	CCc1ccc(OCc2nnc(SCCN3CCOCC3)n2C)cc1	i	0.63
68	COc1ccccc1C(=O)NNC(=O)c1ccccc1	i	0.42
69	C=C(C)COc1ccc(-c2ncncc2Oc2ccc(OC)cc2)c(O)c1	-5.8*	-0.77*
70	O=S(=O)(/N=C(\c1ccccc1F)N1CCCCC1)c1ccccc1	i	-0.18
71	Cc1ccc(NC(=O)CN2CCN(c3ccccn3)CC2)c(Cl)c1	i	-0.45
72	Cc1cc(Cl)ccc1Oc1ccc(C(N)=O)cc1[N+](=O)[O-]	i	-1

# Shown with values ahead of the structure: four of the compounds above.
No.	KCNQ2 block	KCNQ2 block baseline	mol
68	i	0.42	COc1ccccc1C(=O)NNC(=O)c1ccccc1
69	-5.8*	-0.77*	C=C(C)COc1ccc(-c2ncncc2Oc2ccc(OC)cc2)c(O)c1
70	i	-0.18	O=S(=O)(/N=C(\c1ccccc1F)N1CCCCC1)c1ccccc1
71	i	-0.45	Cc1ccc(NC(=O)CN2CCN(c3ccccn3)CC2)c(Cl)c1

# Continuation.
no.	Structure	KCNQ2 block	KCNQ2 block baseline
73	C=Cc1ccc(CN2CCCN(Cc3ccc(F)cc3)S2(=O)=O)cc1	i	-0.64
74	NS(=O)(=O)c1ccc(CNC(=S)NC2CCCC2)cc1	i	0.93
75	COc1ccc(Cl)cc1NC(=O)CSc1nc(C)cc(C)n1	i	0.91
76	CC(C(=O)NCc1ccco1)n1ccc2cc(S(=O)(=O)N3CCCC3)ccc21 (stereo not drawn)	i	0.06
77	O=C(NC1CCCCC1)C(c1cccs1)N(C(=O)C(F)(F)F)c1ccccc1 (stereo not drawn)	i	-0.93
78	CC12CCC(C(=O)NNc3ccc([N+](=O)[O-])cc3)(OC1=O)C2(C)C (stereo not drawn)	i	0.96
79	COc1ccc(C2C(C#N)=C(/N=C/N3CCN(C)CC3)OC3=C2C(=O)CC(C)(C)C3)cc1 (stereo not drawn)	i	-0.47
80	O=C(O)COc1ccccc1/C=N/NC(=O)c1ccc2c(c1)OCCO2	i	-0.88
81	O=C(c1cc2ccccc2o1)N1CCN(c2ccccn2)CC1	i	-0.06
82	CCCCS(=O)CC(COc1ccc(Cl)cc1)OC(=O)c1ccccc1 (stereo not drawn)	-5.8*	-0.01*
83	O=C1C2C3C=CC([C@@H]2C(=O)N1C1CC1)[C@H]1C(=O)N(C2CC2)C(=O)C31 (stereo partly drawn)	i	0.01
84	O=C(/C=C/c1ccc(S(=O)(=O)N2CCOCC2)cc1)NCc1ccccc1	i	-0.84
85	O=C(Nc1cccc(Cl)c1Cl)C1CCN(C(=O)c2cccs2)CC1	i	0.43
86	CCOc1ccccc1C1CC(=O)NC(SCC(=O)Nc2nccs2)=C1C#N (stereo not drawn)	i	1.2
87	COc1ccccc1CNC(=O)CCCN1C(=O)COc2ccc(C)cc21	i	-1
88	Cc1ccc(-c2nnc(-c3ccc(Br)cc3)o2)o1	i	-0.01
89	COc1ccc(C(C)NCCC(c2ccc(OC(C)C)cc2)c2ccccc2OC)cc1 (stereo not drawn)	-6.6*	1.8*
90	CCCCOC(=O)CCn1[nH]c(=O)c2ccccc2c1=O	i	1.4
91	COc1ccc(NC(=O)CN(C)S(=O)(=O)c2ccc3c(c2)NC(=O)CS3)cc1	i	-2.5
92	O=C(CSC1=NC(=O)C(Cc2ccccc2)C(=O)N1)Nc1ncc(Br)cc1Br (stereo not drawn)	i	-0.38
93	CCn1cc([N+](=O)[O-])c(C(=O)N2N=C(c3ccc4ccccc4c3)CC2c2ccccc2O)n1 (stereo not drawn)	i	1.2
94	CC(C)CCNC(=O)c1onc(CSc2ccccc2)c1C(=O)NCCC(C)C	i	1.9
95	Cc1ccc(S(=O)(=O)N2CCN(C(=O)c3ccco3)CC2)cc1C	i	2.4
96	O=[N+]([O-])c1cc(S(=O)(=O)Nc2ccc(Cl)cc2)ccc1N/N=C/c1ccncc1	i	-0.05
97	O=S(=O)(N/N=C/c1ccccc1OCc1ccc(Cl)cc1)c1ccccc1	i	-1.4
98	NC(Cc1ccc(O)c([N+](=O)[O-])c1)C(=O)O (stereo not drawn)	i	-1.4
99	COc1ccccc1N1CCN(C(c2cc3ccc(C)cc3[nH]c2=O)c2nnnn2C2CCCC2)CC1 (stereo not drawn)	i	1.3
100	O=C(O)CC(Cc1ccccc1)C(=O)Nc1ccc([N+](=O)[O-])cc1 (stereo not drawn)	i	2
101	O=C1CC(Sc2ncccn2)C(=O)N1c1ccccc1C(F)(F)F (stereo not drawn)	i	0.46
102	COc1cc(C(=O)NC23CC4CC(CC(C4)C2)C3)cc(OC)c1OC	i	2.1
103	Cc1ccc(C(C(=O)Nc2ccc3c(c2)OCO3)N(C)C(=O)/C=C\c2ccc3c(c2)OCO3)cc1 (stereo not drawn)	i	-1.9
104	CN(C(=S)NC(=O)Cc1ccccc1)c1ccccc1	i	-0.5
105	CCOc1cccc(=O)c2c(C)n(Cc3ccccc3)c(C)c12	i	0.94
106	CC1CCN(CC(=O)Nc2ccccc2Sc2ccccc2)CC1	i	-0.42
107	CCOC(=O)c1c(NC(C)=O)sc2c1CCN(Cc1ccccc1)C2	i	-1.4
108	C/C(N)=C(/C#N)C(=O)COC(=O)c1oc2ccccc2c1COC(C)C	i	-1.8
109	COc1ccc(Cn2c(C)nc3oc4cc(OC)ccc4c(=O)c3c2=O)cc1	i	0.22
110	COP(=O)(OC)C(Nc1cc(Cl)cc(Cl)c1)c1cccc(O)c1 (stereo not drawn)	i	-0.63
111	COc1ccc(C(=O)CNc2ccc3ccccc3c2)cc1	i	1.6
112	COc1cc(C(CC(=O)O)n2cnnn2)ccc1OC(C)C (stereo not drawn)	i	0.32
113	CC(=O)c1sc(NC(=O)CN2C(=O)NC3(CCCC3)C2=O)nc1-c1ccccc1	i	-0.82

# Compound activity (PubChem)

# Some of the compounds tested, so the mix of outcomes need not match the whole.
